Bioassay records as filed in PubChem.
CDC25B-CDK2 inh – human CDC25B-CDK2/CyclinA binding inhibition | P30305+P24941 | HTRF CDC25B-CDK2/CyclinA binding, anti-His/anti-Flag; stronger effect = higher value | z-score (no concentration beside the values) | 94,000 tested, 0.72% active;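 note: score is relative to mean and SD of negative controls; strong numbers were not always called active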
TAR Tat displ – HIV-1 TAR-Tat binding disruption; HIV-1 TAR RNA, Tat peptide displacement FRET; stronger effect = higher value; z-score (concentration not given with the values); 100,000 tested, 0.6% active; AID 1259389;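 note: score is relative to mean and SD of negative controls; some compounds called inactive have numbers as strong as hits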
Starred values were filed as active, the others as inactive; . = no result given.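 Rule for the calls: active = z-score from 3 up in half or more of its runs; inactive = the rest.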

smiles | CDC25B-CDK2 inh | TAR Tat displ
CCOc1ccc(-n2ccc(=O)c(C(=O)Nc3nnc(CC(C)C)s3)n2)cc1 | 0.01 | -0.23
CCCc1nnc2[nH]c(=O)cc(C)n12 | -1.05 | 0.94
COc1ccc([C@@H]2CC(=O)c3c(O)cc(O)cc3O2)cc1O | . | 2.94
CN(C)C(=O)CSCCOc1ccccc1 | -1.02 | .
COc1ccccc1N1CCN(C(=O)c2cc3c(s2)-c2ccccc2SC3)CC1 | -3.1 | -1.2
CC1CCCCN1c1c(-c2ccc3c(c2)OCC(=O)N3)c(=O)c1=O (configuration not stated) | . | 0.09
O=C(NC1=NCCS1)c1c(-c2ccc(Cl)cc2)nc2n1CCS2(=O)=O | -0.66 | 0.8
COc1cc(C)ccc1OCCSc1nc2ccc(NS(C)(=O)=O)cc2s1 | 1.67 | 1.31
C=CCSc1nc2c(c(=O)[nH]1)C(c1cc(F)cc(F)c1)CC(=O)N2 (configuration not stated) | -1.42 | -0.27
COc1ccc(CN[C@H]2CS(=O)(=O)C[C@@H]2S(=O)(=O)c2ccc(F)cc2)cc1 | 0.3 | 1.81
O=C(O)C(c1ccccc1)C(c1ccccc1)c1ccccc1 (configuration not stated) | -2 | 0.84
CCCCc1nc2c3c(C)c(C)n(-c4ccc(F)cc4)c3ncn2n1 | -1.13 | 0.01
Cn1c(=O)c2c(ncn2CC(=O)NC2CCCC2)n(C)c1=O | -0.96 | .
COc1cc(OC)cc(-c2nc3n(n2)C(c2ccncc2)C2=C(CC(C)(C)CC2=O)N3)c1 (configuration not stated) | 1.48 | 2.82
CCOC(=O)C1CCN(C(=O)C(CC(C)C)NS(=O)(=O)c2ccc3c(c2)oc(=O)n3C)CC1 (configuration not stated) | -1.21 | 2.92

New compounds follow.
smiles | CDC25B-CDK2 inh | TAR Tat displ
Cn1c(=O)oc2cc(S(=O)(=O)N3CCCC(C(=O)Nc4nccs4)C3)ccc21 (configuration not stated) | -0.27 | .
O=C1CCSc2c1cccc2C(=O)N1CCOCC1 | . | 1.3
COC(=O)c1c(NC(=O)CSc2nnc3sc4ccccc4n23)sc2c1CCC(C)C2 (configuration not stated) | -1.24 | .
COc1ccc2[nH]c(=O)c(-c3noc(-c4ccccc4Br)n3)cc2c1 | -0.59 | 0.08
COc1cc(C2Nc3ccccc3NC3=C2C(=O)CC(C)(C)C3)cc(OC)c1OC (configuration not stated) | -0.86 | .
COc1ccccc1-n1c(C)c(C)c2c1ncn1nc(CSc3nc4ccccc4o3)nc21 | -2.79 | 0.36
Cc1cc(Cl)ccc1N1CC(O)=C(c2nc3ccccc3n2C)C1=N | -1.2 | 1.66
COCCCNC(=O)c1sc2cc(Cl)ccc2c1Cl | -2.2 | 0.12
Cc1cccc(NC(=O)C2CCCCC2)c1C(=O)O | -1.66 | .
CCOC(=O)c1sc(SCCS(=O)(=O)c2ccc(Cl)cc2)c(C#N)c1-c1ccccc1 | -0.33 | .
CN(CCCNC(=O)Nc1cn(C)c(=O)c2ccccc12)Cc1ccccc1 | . | -2.63
CCCN1C(=O)c2cc(C(=O)NCc3ccc(C)o3)nn2CC1(C)C(=O)NC1CCCC1 (configuration not stated) | . | 0.71
CS/C(N)=N/N=C/c1ccc(N(C)C)cc1 | 0 | .
c1cnc2nc(N3CCOCC3)oc2c1 | -1.29 | 0.49
COC(=O)c1c(N2CCCC2=O)c2cc(C)ccc2n1C | 1.01 | -0.72

(more compounds)
smiles | CDC25B-CDK2 inh | TAR Tat displ
CCNC(=O)c1cnc(N2CCOCC2)nc1 | . | 1.42
Cc1nc(S(=O)(=O)N(C)C2CCCCC2)cn1C | -0.4 | .
Cn1c(=O)oc2cc(S(=O)(=O)N3CCC(C(=O)Nc4ccc(Br)cc4)CC3)ccc21 | 0.59 | 1.16
CC(C)(C)NS(=O)(=O)c1csc(C(N)=O)c1 | . | 2.54
CC1CCC(NC(=O)C2(C)Cn3c(ccc3-c3ccco3)C(=O)N2C2CCCCC2)CC1 (configuration not stated) | . | 1.44
COc1cc([C@@H]2c3cc4c(cc3[C@H](O)[C@H]3COC(=O)[C@@H]23)OCO4)cc(OC)c1OC | . | 2.76
O=C(c1ccc(Br)cc1)N1N=C2CCCCCC2C1(O)C(F)(F)F (configuration not stated) | -0.22 | .
CCCCCNc1nc(-c2ccco2)c2c(c1C#N)CCCC2 | -0.64 | -4.26
Cc1cc(NNC(=O)c2ccc([N+](=O)[O-])o2)c2ccccc2n1 | 0.39 | .
CC(=O)N1CCN([C@H]2CS(=O)(=O)C[C@@H]2S(=O)(=O)c2ccc(F)c(C)c2)CC1 | -2.16 | 1.04
Cn1c(C(=O)N2CCC(C(=O)N3CCc4ccccc4C3)CC2)cc2sccc21 | -1.05 | 2.42
Cn1c(=O)oc2cc(NS(=O)(=O)c3ccc4c(c3)CCCC4)ccc21 | . | 0.96
CCOCCn1c(=O)c2c(nc3n2CCN3c2ccc(F)cc2)n(C)c1=O | . | 2.37
Cc1ccc(C)c(NC(=O)c2cnc3sccn3c2=O)c1 | -2.57 | -0.17
CCc1nnc(NC(=O)C(CC)n2nc(C)c3nn(-c4ccccc4)c(C)c3c2=O)s1 (configuration not stated) | . | 1.55

New compounds follow.
smiles | CDC25B-CDK2 inh | TAR Tat displ
CCS(=O)(=O)c1nc(S(=O)(=O)c2ccc(C)cc2)c(N2CCCC2)s1 | -0.21 | 1.62
COc1ccc(-n2ncc(NC(=O)NCc3cccs3)c2C)cc1 | -1.8 | .
CCOC(=O)c1c(O)c2cccc3c2n(c1=O)CC3 | -1.52 | .
Cc1ccc(S(=O)(=O)n2nc(C)c(S(=O)(=O)N3CCCC3)c2C)cc1 | . | -0.49
O=C(CSC1CN(C(c2ccccc2)c2ccccc2)C1)NNC(=O)Nc1ccccc1 | -1.69 | .
Cc1ccc(S(=O)(=O)[C@H]2CS(=O)(=O)C[C@@H]2NCc2ccccc2)cc1 | 0.36 | -0.98
COc1ccc(-c2nc(N3CCCCC3)c3ccccc3n2)cc1 | . | 2.2
Cc1cc(C)c2c(C)c(C(=O)N(Cc3ccc(C)o3)c3ccccn3)oc2c1 | -1.37 | 0.57
CCOC(=O)c1ccc2c(c1)CC/C(=C\c1ccc(F)cc1)C2=O | -2.18 | .
COc1ccc(/C=N/NC(=O)c2sc(=S)n(-c3ccccc3)c2N)cc1 | -2.19 | .
O=C(Nc1ccc2c(c1)OCO2)c1cn(-c2ccc(F)cc2)nn1 | -0.95 | -0.14
CNC(=O)n1nc(C)c(Cc2csc3ccc(Cl)cc23)c1C | -0.6 | .
COc1cc(Nc2ncnc3onc(-c4cc(F)cc(F)c4)c23)cc(OC)c1 | . | -0.2
CC1CCN(S(=O)(=O)c2ccc3nc(N4CCCC4)ccc3c2)CC1 | . | 1.64
C(=NCC1CCC(CN=Cc2ccco2)CC1)c1ccco1 (configuration not stated) | -1.32 | .

(next part)
smiles | CDC25B-CDK2 inh | TAR Tat displ
O=C(Nc1nnc(SCc2ccccc2)s1)c1nn(-c2ccccc2)ccc1=O | -0.1 | 1.28
COc1ccc(-n2ncc(C(=O)Nc3ccc4nccnc4c3)c2C)cc1 | -1.35 | .
CCOc1cc(C2C(C#N)=C(N)OC3=C2C(=O)CCC3)ccc1O (configuration not stated) | -1.36 | .
COc1ccc(NC(=O)c2c(N3CCCC3=O)c3cc(OC)ccc3n2C)cc1 | . | -0.29
O=C1CCCc2cc(S(=O)(=O)NCc3cccs3)ccc2N1 | . | -1.63
CCCCN(CC)CCNC(=O)Cn1ncc2c1-c1ccccc1OC2 | -1.26 | -0.61
O=C(C1CCCN(c2nnc(-n3cccc3)s2)C1)N1CCN(c2ccc(F)cc2)CC1 (configuration not stated) | . | 2.11
Cc1cc(C)cc(OCc2nc(Cc3ccc(Cl)cc3)no2)c1 | -1.55 | -1.31
CCNC(=O)C1CCN(S(=O)(=O)c2cc(-c3noc(CC)n3)cs2)CC1 | . | 1.23
Cc1ccc(Cn2c(CO)cnc2SCc2ccc(F)cc2)cc1 | . | 1.48
O=C(CCCN1C(=O)c2cccnc2Oc2ccccc21)N1CCc2ccccc21 | . | 1.19
COc1ccc(OC)c(NC(=O)CCc2nc(-c3cccs3)no2)c1 | 0.72 | 0.99
CCS(=O)(=O)N1CCC2(CC1)OC(=O)C(C)=C2C(=O)Nc1ncccc1C | . | 0.22
CCNc1nc(Oc2ccc(OCC(=O)OC)nn2)nc(N2CCOCC2)n1 | -1.77 | .
CC(C)NC(=O)CCc1nc(-c2cccs2)no1 | -0.89 | 2.31

Whole records as entered above. Order of values: CDC25B-CDK2 inh | TAR Tat displ
`COc1ccc(CN[C@H]2CS(=O)(=O)C[C@@H]2S(=O)(=O)c2ccc(F)cc2)cc1` reads 0.3 | 1.81
`CCCCc1nc2c3c(C)c(C)n(-c4ccc(F)cc4)c3ncn2n1` reads -1.13 | 0.01
`COc1ccc(NC(=O)c2c(N3CCCC3=O)c3cc(OC)ccc3n2C)cc1` reads . | -0.29
`C=CCSc1nc2c(c(=O)[nH]1)C(c1cc(F)cc(F)c1)CC(=O)N2` (configuration not stated) reads -1.42 | -0.27

(continued)
smiles | CDC25B-CDK2 inh | TAR Tat displ
O=C(c1ccccc1)c1ccc(-n2cccc2)c([N+](=O)[O-])c1 | -1.21 | .
CCC(C)NC(=O)CCS(=O)(=O)c1cc2[nH]c(=O)c(=O)[nH]c2cc1C (configuration not stated) | . | -0.22
COc1ccccc1-c1nnc2sc(-c3ccncc3)nn12 | -1.68 | 1.6
CCN1CCN(c2c(S(=O)(=O)c3ccc(Cl)cc3)cnc3cc(OC)c(OC)cc23)CC1 | -1.92 | -0.27
COc1cc2c(c(OC)c1)C(c1ccc(Br)cc1)CC(=O)N2 (configuration not stated) | 0.12 | -0.31
O=C(Cn1c(=O)oc2ccc(C(=O)N3CCCC3)cc21)Nc1nc2ccccc2s1 | . | 1.43
COc1cc(/C=C2\SC(=Nc3cccc(Cl)c3C)NC2=O)cc([N+](=O)[O-])c1O | -1.61 | .
CCc1n[nH]c(=O)c2c1nnn2Cc1ccccc1F | 0.56 | 1.7
O=C(CSc1ncc(S(=O)(=O)c2ccccc2)c(=O)[nH]1)Nc1cc(F)ccc1F | -0.96 | 1.7
CN(C)c1ccc(CN(C(=O)c2cc(-c3ccc(Cl)cc3)on2)C2CCS(=O)(=O)C2)cc1 (configuration not stated) | -1.27 | 1.68
CNc1oc(-c2ccc(S(=O)(=O)N3CCc4ccccc4C3)cc2)nc1C#N | -0.15 | -2.06
COc1cc(NC(=O)C2=CSCCO2)c(Cl)cc1C(=O)NC1CCCC1 | . | 2.62
CC12CN3CC(C)(CN(C1)C3c1ccc(F)cc1)C2=O (configuration not stated) | -0.65 | -9.97
COc1ccccc1C1CCN(c2ccc([N+](=O)[O-])cn2)CC1 | -1.91 | .
O=C(Nc1cc(F)ccc1F)c1ccc(N2CCSc3ncccc32)s1 | . | 0.02

(next part)
smiles | CDC25B-CDK2 inh | TAR Tat displ
O=C1OC(C(F)(F)F)N=C1c1ccccc1 (configuration not stated) | -0.47 | .
CCCCCn1c(CNC(=O)[C@H]2O[C@@H]3OC(C)(C)O[C@@H]3[C@H]3OC(C)(C)O[C@H]32)nc2ccccc21 | -0.83 | .
COc1cc(NS(=O)(=O)c2cc(-c3csc(C)n3)ccc2C)cc(OC)c1 | . | 2.75
Cc1cc(C)c(NS(=O)(=O)c2ccc3c4c2CC(=O)N4CC(C)S3)c(C)c1 (configuration not stated) | . | 1.24
N#C/C=C/c1ccc(Br)cc1C(F)(F)F | -1.2 | .
Cn1c2c(c(=O)[nH]c1=O)C(c1ccc(Br)cc1)C1=C(N2)c2ccccc2C1=O (configuration not stated) | -6.08 | -13.5
Cc1ccc(N2CC(NC(=O)Nc3nccs3)CC2=O)cc1 (configuration not stated) | . | 0
O=C1Nc2ccccc2OC1(O)C(F)(F)F (configuration not stated) | -2.65 | .
O=C(NCc1cccs1)c1n[nH]c(=O)c2ccccc12 | -1.58 | -1.08
COc1ccc(OC)c(S(=O)(=O)Nc2cc(Cl)c3oc(=O)sc3c2)c1 | -1.39 | 2.37
CC(C)(C)c1cc(N)nc(N)n1 | -1.84 | .
COc1cccc(Oc2nc(C)nc3sc4c(c23)CCCC4)c1 | . | 0.76
COc1ccc(C2/C(=C(\O)c3ccc(F)cc3)C(=O)C(=O)N2c2nncs2)cc1OC (configuration not stated) | -1.95 | -1.48
O=C(Nc1nc2nc(-c3ccccc3)cc(=O)n2[nH]1)c1ccc(F)cc1 | 0.19 | -0.04
C=CCN1C(C(=O)c2ccccc2)=C(OC(=O)c2ccc(C)cc2)c2ccccc2S1(=O)=O | -0.08 | .

The results go on:
smiles | CDC25B-CDK2 inh | TAR Tat displ
C=CCn1c(N)c(C(=O)OC)sc1=S | -1.34 | .
Cc1csc(NC(=O)c2cnc3sc(C)cn3c2=O)n1 | . | 1.54
Cc1cc(OCc2noc(-c3ccc(F)cc3)n2)cc(C)c1Cl | 0.17 | 0.05
CC(C)n1c(=O)c(=O)[nH]c2ccccc21 | -1.83 | 0.24
FC(F)(F)c1nnc2sc(-c3ccccc3Cl)nn12 | 0.56 | 0.21
CCC1CN(C(=O)N2CCC(C(=O)N3CCOCC3)CC2)c2ccccc2O1 (configuration not stated) | . | 1.77
Cc1noc2ncnc(NCCCN3CCCC3)c12 | . | 0.49
CNS(=O)(=O)c1cn(CC(=O)N2c3ccccc3CC2C)cc1S(=O)(=O)NC (configuration not stated) | . | 0.26
N#Cc1c(NC(=O)COCc2cc(-c3ccc(F)cc3)on2)sc2c1CCC2 | -0.14 | 0.02

Looked up by compound from above (two):
smiles | CDC25B-CDK2 inh | TAR Tat displ
Cc1cc(OCc2noc(-c3ccc(F)cc3)n2)cc(C)c1Cl | 0.17 | 0.05
CNS(=O)(=O)c1cn(CC(=O)N2c3ccccc3CC2C)cc1S(=O)(=O)NC (configuration not stated) | . | 0.26
